Source: PubChem
GALR2 agonist: GALR2 receptor agonists, primary screen, cell-based. GALR2-expressing cells, agonist activation read-out. activation, %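 (tested at 5 µM)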. 140,000 compounds, 0.48% hits. AID 803, 2007;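 active means above mean plus 3 SD of all compounds, about 5% in these data, not always enough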;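 further: 0% = vehicle buffer wells and 100% = reference agonist at full effect; tested in CHO reporter cells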
PKD1 inh: inhibitors of human PKD1 kinase, biochemical, fluorescence polarization. 200,000 compounds, 0.056% hits. inhibition, %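 (about 10 µM by stock and volumes)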. AID 797, 2007. PKD1 kinase fluorescence polarization assay. Serine/threonine-protein kinase D1 (Homo sapiens), Q15139;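 active means inhibition of 50% or more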;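 further: controls were vehicle for no effect and a reference inhibitor for full effect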
Target sequence (Q15139 whole entry, looked up): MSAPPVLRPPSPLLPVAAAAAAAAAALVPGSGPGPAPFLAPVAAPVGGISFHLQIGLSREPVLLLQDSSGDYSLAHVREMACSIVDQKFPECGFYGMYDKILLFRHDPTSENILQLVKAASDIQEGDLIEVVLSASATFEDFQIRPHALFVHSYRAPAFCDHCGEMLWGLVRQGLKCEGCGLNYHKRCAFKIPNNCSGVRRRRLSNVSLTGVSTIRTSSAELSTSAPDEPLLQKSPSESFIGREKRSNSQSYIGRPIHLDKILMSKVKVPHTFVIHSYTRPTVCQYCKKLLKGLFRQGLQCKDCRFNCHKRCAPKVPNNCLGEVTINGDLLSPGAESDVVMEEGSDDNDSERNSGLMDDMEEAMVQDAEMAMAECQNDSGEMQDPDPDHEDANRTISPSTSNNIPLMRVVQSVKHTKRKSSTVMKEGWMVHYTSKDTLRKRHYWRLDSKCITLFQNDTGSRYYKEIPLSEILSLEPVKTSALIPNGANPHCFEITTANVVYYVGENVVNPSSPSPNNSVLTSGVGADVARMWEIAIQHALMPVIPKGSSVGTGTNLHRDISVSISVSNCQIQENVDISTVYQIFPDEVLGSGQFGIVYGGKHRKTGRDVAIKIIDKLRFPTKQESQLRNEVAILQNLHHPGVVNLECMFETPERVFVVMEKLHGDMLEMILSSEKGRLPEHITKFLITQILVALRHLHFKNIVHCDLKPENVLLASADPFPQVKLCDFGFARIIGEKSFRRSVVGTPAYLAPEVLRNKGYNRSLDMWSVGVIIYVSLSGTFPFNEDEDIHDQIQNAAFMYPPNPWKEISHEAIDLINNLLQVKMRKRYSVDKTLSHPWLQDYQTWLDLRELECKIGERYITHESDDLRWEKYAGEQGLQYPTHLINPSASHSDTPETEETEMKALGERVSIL
RGS16-Gao: modulators of RGS16 binding to Galphao, primary screen, biochemical, human proteins, multiplexed bead flow cytometry | AID 1441, 2008 | binding response (% of control), % at 10 µM | Regulator of G-protein signaling 16 (Homo sapiens) + Guanine nucleotide-binding protein … | 220,000 compounds, 0.38% hits | bead-based flow cytometry RGS16-Galphao binding, fluorescence; actives lie on both sides;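 active means below 25% or above 175%, edge rows of some plates excepted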;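 further: Galphao activated by GDP with aluminum fluoride before binding; 100% = wells without compound and 0% = beads without RGS; some results beyond the cut were filed as inactive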
HSV augment: enhancers of HSV replication in host cells, fold increase, host cell viability. HSV replication augmentation in cells. maximum fold increase. 220,000 compounds, 0.005% hits;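 active means peak rise of 1.5-fold or more in the series; inconclusive means self-fluorescent or not available for retest; tested in PC3 cells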;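 further: first round at 10 µM; read as green reporter fluorescence; hits show the peak of a series up to 25 µM; 1 = signal of infected wells without compound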
INS promoter inh: inhibitors of insulin promoter-driven GFP, primary screen, imaging, TRM-6 cells (human fetal islet line), eGFP reporter, cell count; AID 1273, 2008; 130,000 compounds, 0.9% hits; reporter expression induced with tamoxifen; inhibition, % at 2 µM;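 active means inhibition above the mean plus 3 SD, with well images judged a real hit on visual review, cut at about 60% in these data, passing the limit was not always enough; inconclusive means inhibition over the cutoff but images rejected on review; inactive means inhibition not above the cutoff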
INS promoter inh cell count: recorded beside INS promoter inh, whose call it bears; normalized cell count, %; measured here: cell count, toxicity; reference of the scale not given here;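 cells exposed to compound for 48 h; stained nuclei by imaging scaled within each plate; lower means fewer cells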
HSV augment primary fold: further read-out of HSV augment, marked with its call; fold increase; compound at 10 µM; measured here: primary screen fold increase 10 uM; tested in PC3 cells;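 GFP signal in the first replicate; 1 = infected wells without compound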
An asterisk follows results filed as active; i = inactive; ? = inconclusive; · = not tested or not shown. Outcome played no part in choosing rows; about 1.3% have a hit in one of these screens.

SMILES	GALR2 agonist	PKD1 inh	RGS16-Gao	HSV augment	HSV augment primary fold	INS promoter inh	INS promoter inh cell count
C(=N\N1CCN(C(c2ccccc2)c2ccccc2)CC1)/c1ccc2c(c1)OCO2	·	8	97	i	1	·	·
O=C(Cn1[nH]c(=O)c2ccccc2c1=O)OCC(=O)N1CCCc2ccccc21	-1.4	-9	97	i	0.78	9	149
CSC1=NCCN1C(=O)c1ccc(Br)o1	-1.4	-6	103	i	1	·	·
COCCCN(C(=S)Nc1ccc(C)cc1Cl)C(C)c1ccncc1 (stereo not given)	0.1	0	103	i	0.98	-2	117
Cc1c(C)n(C(=O)CSc2nccn2C)c2ccccc12	-2.5	0	103	i	0.73	·	·
Cc1ccc(C2CC(c3cccs3)=NN2C(=O)c2ccco2)o1 (stereo not given)	·	2	103	i	0.94	-158	160
O=C(Nc1ccc(F)c(Cl)c1)c1nsc(Cl)c1Cl	·	·	99	i	1.1	·	·
Nc1c(NCc2ccccc2)c2ccccc2oc1=O	-1.8	0	121	i	1	6	110
CCSc1ccc2nnc(-c3ccc(F)cc3)n2n1	-1.2	12	102	i	1.1	·	·
CCOC(=O)COc1cccc2c(=O)n(CC(=O)N3CCCCC3)ccc12	·	·	100	i	1.1	·	·
COc1cc(OC)cc(C(=O)N[C@H](C(=O)Nc2nc3c(s2)CCCC3)C(C)C)c1	0.3	3	108	i	0.87	-6	110
Cc1cccc(CSc2ccc(-c3cccs3)nn2)c1	-1.3	-7	94	i	1.1	·	·
O=C(NCc1ccncc1)C(=O)N/N=C/c1ccccc1OCc1ccccc1	·	1	96	i	1.1	-35	126
O=C(Nc1ccccc1Cl)C1CCN(Cc2cnn(-c3ccccc3)c2-n2cccc2)CC1	0.7	3	103	i	1.2	·	·
Cc1ccnc(SCC(N)=O)n1	·	0	97	i	0.96	0	97
Cc1ccc(S(=O)(=O)N(CC(=O)NCc2ccncc2)C2CCCCC2)cc1	-1.5	1	96	i	1	9	58
O=C(NCC(c1cccnc1)N1CCN(c2ccccc2)CC1)OCc1ccccc1 (stereo not given)	-0.7	-4	106	i	0.76	-76	102
COc1ccc(CC(=O)NCc2ccccn2)cc1OC	-3.0	-11	98	i	0.82	·	·
Cc1ccc(COc2ccc(C(=O)NN)cc2)cc1	·	0	95	i	0.98	·	·
Cc1cc(C(=O)N2CCN(S(C)(=O)=O)CC2)sc1-c1ccccc1	-1.1	-6	102	i	0.72	-54	71
Cc1cc(N/C(=N\S(=O)(=O)c2ccc(Cl)cc2)c2ccc(F)cc2)no1	-1.8	-4	105	i	0.97	-8	99
O=C(Nc1nc(-c2cccs2)c(-c2ccccc2)s1)c1ccco1	-2.5	-11	101	i	0.98	·	·
CCOc1cccc(OCCCCN2CCOCC2)c1	-1.6	-3	102	i	1	-43	100
COc1ccc(N2C(=O)C3CCCN3C2c2ccccc2Cl)cc1 (stereo not given)	-3.0	-3	151	i	0.95	·	·
Cn1c(=O)cc(N2CCOCC2)[nH]c1=O	·	3	99	i	0.8	·	·
COc1cc(-c2ccc(NC(=O)c3ccc(C)cc3)c(OC)c2)ccc1NC(=O)c1ccc(C)cc1	-2.8	1	97	i	1.1	-64	66
COc1ccc(-c2nc(SCC(=O)Nc3nccs3)c(-c3ccc(Cl)cc3)[nH]2)cc1	-0.5	7	·	i	0.48	14	118
Cc1ccc(CNC(=O)CCc2nnc(Cc3ccc(-c4ccccc4)cc3)o2)o1	·	-4	100	i	1	·	·
Cc1ccc(-n2c(SCC(=O)OC(C)C)nnc2-c2ccco2)cc1	-0.7	-3	100	i	0.98	12	146
CCOC(=O)C1CCN(C(=O)COc2ccc(S(=O)(=O)NC(C)C)cc2)CC1	-0.3	-6	92	·	·	-41	170
COC(=O)c1c(-c2ccccc2)csc1NC(=O)c1c(-c2ccccc2)noc1C	-0.1	-4	95	i	0.8	·	·
COc1c(Br)cc(Br)cc1/C=N/NC(=O)c1ccncc1	·	1	98	i	0.88	·	·
C=CCC(CC=C)(C(=O)O)c1ccccc1	-1.9	-6	104	i	0.99	-12	74
O=C(CSCc1ccc(Cl)cc1)Nc1ccc(-c2nnc(-c3ccccc3)o2)cc1	0.7	-3	101	i	1.1	·	·
O=C(N/N=C/c1ccc(N2CCOCC2)c([N+](=O)[O-])c1)c1ccc(F)cc1	-1.9	2	100	i	0.8	-5	104
CCOC(=O)c1c(N2C(=O)C3CC(C)=C(C)CC3C2=O)sc(C)c1C (stereo not given)	0.2	1	100	i	0.98	23	100
COc1ccc(C(Nc2cc(C)ccn2)c2ccc3ccc(C)nc3c2O)cc1 (stereo not given)	·	·	96	i	0.91	·	·
Cc1cccc(NC(=O)Cc2noc3ccccc23)c1	-1.9	-1	112	i	0.88	-16	96
O=C(CCC(=O)Nc1ccc(F)cc1)N/N=C/c1c[nH]c2ccccc12	·	5	101	i	0.89	·	·
O=C(NN1CCOCC1)c1ccc(Cl)cc1	-0.8	4	111	i	0.89	24	117
Cc1cccc(-n2c(C)cc(/C=C3/C(=N)N4C(c5ccccc5)=CSC4=NC3=O)c2C)c1	-1.8	0	55	i	1.1	31	91
CCC1CCCCN1C(=O)COC(=O)c1n[nH]c2ccccc12 (stereo not given)	-3.9	-13	105	i	1	41	156
O=C(CC1SC(=NC2CCCCC2)NC1=O)Nc1ccccc1 (stereo not given)	-1.5	5	99	i	0.92	-19	103
O=C(O)CSc1nnc(-c2ccc(S(=O)(=O)N3CCCC3)cc2)n1Cc1ccco1	-0.2	3	78	i	1	·	·
O=C(NCc1ccco1)C1CCCN(S(=O)(=O)c2cccc3nonc23)C1 (stereo not given)	2.4	-2	99	i	1	-10	149
O=C1N=c2ccccc2=C1c1sc(Nc2ccc(O)cc2)nc1O	·	-7	92	i	0.83	50	94
CC(=Nc1ccc(Br)cc1)c1sc2ccccc2c1O	·	·	83	?	·	·	·
C#CCOCCOCCOCCNc1nc(N2CCN(C(=O)Cn3cc(CC(C)O)nn3)CC2)nc(N2CCN(C(=O)[C@H](C)n3cc(CCCN=C(N)N)nn3)CC2)n1 (stereo not given in full)	-0.4	-8	108	i	0.89	14	108
COc1ccc2cnnc(SCC(=O)Nc3ccc(C(=O)O)cc3)c2c1OC	0.4	9	98	i	0.95	27	123
CCOc1ccc(NC2c3ccccc3C(=O)N2Cc2ccc3c(c2)OCO3)cc1 (stereo not given)	-1.4	0	98	i	0.72	·	·
COCc1ccc(C(=O)N2CCCC(CCC(=O)NCc3ccccc3F)C2)o1 (stereo not given)	·	4	99	i	0.74	·	·
CCCCCC(=O)NNC1CC(=O)N(c2ccccc2)C1=O (stereo not given)	·	·	95	i	1	·	·
Cn1nnc(C(O)CNCc2ccc(Cl)cc2)n1 (stereo not given)	·	-13	104	i	1.1	-22	96
CN(Cc1ccccc1)c1ccc2nnc(-c3ccccc3)n2n1	-0.2	-6	101	·	·	-100	52
O=C(c1ccco1)N(CCC(c1ccccc1)c1ccco1)Cc1ccco1 (stereo not given)	-2.9	-3	2.3*	i	0.93	-31	100
Cc1ccc(C(=O)NNC(=O)CCC(=O)Nc2cccc(Cl)c2C)cc1	-0.1	-1	99	i	1.1	-56	87
CCc1ccc(NC(=O)c2noc3c2CCC3)cc1	-0.2	-15	80	i	0.97	-8	80
O=C(Nc1ccc2c(c1)nc1n2CCOC1)c1ccccc1	-2.1	-1	129	i	0.91	·	·
O=C(COc1ccc(N2C(=O)c3ccccc3C2=O)cc1)c1ccccc1	-2.0	-3	93	i	0.95	19	100
O=C1NCC(COCc2ccco2)O1 (stereo not given)	0.5	2	243	i	1.1	·	·
(continued)
SMILES	GALR2 agonist	PKD1 inh	RGS16-Gao	HSV augment	HSV augment primary fold	INS promoter inh	INS promoter inh cell count
Clc1ccc(-c2csc(Nc3ccccc3)[n+]2Cc2ccco2)c(Cl)c1	·	-9	103	i	1.1	·	·
O=C(Nc1ccc(Cl)cc1)N1CCCC(Cn2cccc2)C1 (stereo not given)	·	·	99	?	·	·	·
CC(=O)NS(=O)(=O)c1ccc(NC(=O)c2cc3c(=O)n4ccccc4nc3s2)cc1	·	·	94	i	0.92	·	·
COc1cc(NC(=O)CSc2nccc(C)n2)c(C)cc1[N+](=O)[O-]	0.5	-3	97	i	0.88	-56	117
O=c1[nH][nH]cc1C=NCc1cccc(C(F)(F)F)c1	·	2	97	i	0.99	·	·
O=C(CSc1nnc(CCCN2C(=O)c3cccc4cccc(c34)C2=O)n1-c1ccccc1)N1CCCCC1	0.1	-5	102	i	0.77	·	·
CCCC(=O)Nc1ccc2c(c1)nc(CN1CCCC1)n2C	-0.6	-2	99	i	1.1	-21	55
O=C(Nc1ccc2c(c1)OCO2)c1cccc(S(=O)(=O)N2CCCC2)c1	-1.6	6	60	i	0.9	32	58
Cc1cc(NC(=O)CSc2nnc(-c3c[nH]c4ccccc34)n2-c2ccc(Cl)cc2)no1	-1.3	-1	102	i	0.93	-24	138
Cc1csc2nc(CNS(=O)(=O)N(C)C)cn12	-2.3	-2	111	i	0.93	·	·
CC(=O)Nc1ccc2c(c1)CN(c1cc(C)ccc1C)CO2	-0.9	-3	103	i	1.1	·	·
Nn1c(Cc2cccc3ccccc23)nnc1SCc1c(F)cccc1Cl	-0.9	10	110	i	0.98	-27	84

Record cards (already shown). Order of screens: GALR2 agonist | PKD1 inh | RGS16-Gao | HSV augment | HSV augment primary fold | INS promoter inh | INS promoter inh cell count
C=CCC(CC=C)(C(=O)O)c1ccccc1 in the list: -1.9 | -6 | 104 | i | 0.99 | -12 | 74
Cc1ccc(CNC(=O)CCc2nnc(Cc3ccc(-c4ccccc4)cc3)o2)o1 in the list: · | -4 | 100 | i | 1 | · | ·

Remaining list, next part
SMILES	GALR2 agonist	PKD1 inh	RGS16-Gao	HSV augment	HSV augment primary fold	INS promoter inh	INS promoter inh cell count
Clc1ccc(-c2nnc(CNC3CC3)o2)cc1	-1.3	-6	99	i	0.99	·	·
CCOC(=O)CNC(=O)C(Cc1ccccc1)NS(=O)(=O)c1ccc2c(c1)CCC(=O)N2 (stereo not given)	-0.4	0	·	i	0.96	-61	136
CC(C)C(C(=O)NCc1ccco1)N(C(=O)CNS(=O)(=O)c1ccccc1)C1CCCC1 (stereo not given)	-1.1	-8	103	i	0.95	·	·
CCOC(=O)N(C)S(=O)(=O)c1ccccc1[N+](=O)[O-]	·	-1	102	i	1	·	·
Cc1cc2nc(C(C)(C)C)cc(N)n2n1	·	-1	105	i	0.93	·	·
COc1cccc(/C=N/Nc2nnc3c(n2)[nH]c2ccccc23)c1OC	·	·	101	i	0.92	·	·
CCCCCc1ccc(CC(=O)O)cc1	-2.0	-5	137	·	·	·	·
CC(=O)Nc1c2c(nn1-c1ccc(C)cc1C)CSC2	0.6	-11	105	i	1.1	-55	224
Nc1nc(C(F)(F)F)cc(=O)n1N	·	1	104	i	0.96	·	·
O=C1Nc2ccccc2N(O)N1c1cc(-c2ccccc2)[nH]n1	·	-2	107	i	0.95	85*	92*
COc1cc(C(c2sc3nc(C)nn3c2O)N2CCN(c3ccccc3)CC2)cc(OC)c1OC (stereo not given)	-1.1	-1	105	i	0.91	·	·
COC(=O)c1ccc2c(=O)n(CC3CCCO3)c(=S)[nH]c2c1 (stereo not given)	-1.9	0	99	i	1.1	-32	46
COc1ccccc1CNC(=O)c1ccccc1OC	-2.6	-5	105	i	0.9	·	·
CCOC(=O)c1nc(C)nc(Sc2n[nH]c(-c3ccccc3)n2)c1C	·	·	96	i	1.1	·	·
Cc1cccc(NC(=O)CSc2nc(NS(=O)(=O)c3ccccc3)cc(=O)[nH]2)c1	·	3	93	i	1.1	·	·
CC1CC1C(=O)OCC(=O)NC(=O)NC12CC3CC(CC(C3)C1)C2 (stereo not given)	·	-2	115	i	0.97	100*	23*
O=C(O)c1cccc(NC(=O)c2cccc(NC(=O)C3CCCO3)c2)c1 (stereo not given)	-2.7	-4	99	i	0.85	25	98

An excerpt of these results, as labelled records:
SMILES: O=C(CCC(=O)Nc1ccc(F)cc1)N/N=C/c1c[nH]c2ccccc12
  GALR2 agonist = ·; PKD1 inh = 5; RGS16-Gao = 101; HSV augment = i; HSV augment primary fold = 0.89; INS promoter inh = ·; INS promoter inh cell count = ·
SMILES: O=C(NN1CCOCC1)c1ccc(Cl)cc1
  GALR2 agonist = -0.8; PKD1 inh = 4; RGS16-Gao = 111; HSV augment = i; HSV augment primary fold = 0.89; INS promoter inh = 24; INS promoter inh cell count = 117
